# Sa RN4220 lethal = S. aureus RN4220 growth inhibition; OD600, 16 h; inhibition, % (no concentration beside the values); hit rate 0.33% among 330,000;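 active means z-score of -3 or lower and OD600 up to 0.18 on both plates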;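 further: plate controls were untreated cells for no effect and reference antibiotic for full effect; stock transfer was 100 nL into about 80 µL; one replicate is shown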
# BJeLR viability = BJeLR cell viability loss | BJeLR (HRASV12) viability, CellTiter-Glo ATP luminescence, 48 h; reference of the scale not given here | inhibition, % (concentration not given with the values) | hit rate 0.17% among 300,000 | AID 1554;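 active means replicate mean above 50%; inconclusive means above 50% but judged a plate artefact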;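 further: 50 nL library stock added to about 25 µL; numbers are from one replicate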
# Mtb hypoxia rep = inhibitors of hypoxia-regulated fluorescent reporter in Mycobacterium tuberculosis | AID 1159583 | fluorescence inhibition, % (concentration not given with the values) | hit rate 0.1% among 300,000 | M. tuberculosis hypoxia-regulated fluorescent reporter, fluorescence;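 active means 35 to 45% if threefold the growth effect, above 45% if 1.5-fold the growth effect; inactive means the rest, general growth blockers included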;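 further: wells of about 50 µL received 100 nL stock; 0% = vehicle wells and 100% = reference inhibitor wells; whole bacteria with a GFP reporter of the hypoxia response; strong numbers were not always called active; many hits fall short of the cut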
# Autofluor counter = compound fluorescence in toxin protease inhibitor counterscreen | compound autofluorescence counterscreen, microsphere flow cytometry; stronger effect = higher value | fluorescence intensity (no concentration beside the values) | hit rate 3.1% among 360,000 | AID 624483;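 active means at least 3 SD above the mean of all compounds, about 16000 in these data; inconclusive means too few beads counted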;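 further: 100 nL of 1 mM stock went into each well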
# Sa ugtP lethal = growth inhibition of S. aureus ugtP deletion strain; S. aureus RN4220 ugtP deletion, OD600 growth, 16 h; some inactives read as strong as hits; growth inhibition, % (test concentration not listed); hit rate 0.54% among 330,000; AID 1259309;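 active means z-score under -3 and OD600 up to 0.15 on both plates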;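 further: plate controls were untreated wells for no effect and antibiotic for full effect; wells of about 80 µL received 100 nL stock; the first replicate is given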
# PrP 5UTR inh = inhibition of PrP 5' UTR reporter expression. cell-based PrP 5' UTR mRNA reporter, plate reader. inhibition, % (test concentration not listed). hit rate 0.35% among 340,000;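 active means every replicate at 50% or more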;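 further: 0 = median of the neutral control wells; tested in H4 reporter cells; numbers are from one replicate; inactives centre near -14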
# Mtb hypoxia rep growth = also measured in Mtb hypoxia rep; calls as there; growth inhibition, %; measured here: M. tuberculosis growth (absorbance);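 0% = vehicle and 100% = reference antibiotic; read after six days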
# Active calls of the source: *; ? = inconclusive; / = not tested or not shown.
SMILES,Sa RN4220 lethal,BJeLR viability,Mtb hypoxia rep,Mtb hypoxia rep growth,Autofluor counter,Sa ugtP lethal,PrP 5UTR inh
Cc1ccc2nsnc2c1S(=O)(=O)Nc1ccccc1C(=O)O,3.2,5,10,12,4856,-4,-3
COCCN1C(=O)c2ccccc2C(C(=O)NCC2CCCO2)C1c1c[nH]c2ccccc12 (centres undefined),1.2,3,/,/,4292,1,-13
COc1ccc(NN=C(C#N)C(N)=O)cc1,8.1,/,-4,2,/,1,/
c1ccc2cc(OCCOCCOc3ccc4ccccc4c3)ccc2c1,4.6,-4,-14,6,3258,4,-12
Cc1ccc(C=NNC(=O)c2nnn(-c3nonc3N)c2-c2ccc3c(c2)OCO3)s1,0.0,/,7,4,/,6,/
CC(C)(C)c1ccc(C(=O)Nc2cccc3ncccc23)cc1,/,6,/,/,7746,/,-11
CC(=O)Nc1ccc(S(=O)(=O)N2CCN(CCCOc3cc(C)ccc3C)CC2)cc1,1.0,6,-2,7,11377,-2,/
Cc1ccc([N+](=O)[O-])cc1N=C(c1cccc([N+](=O)[O-])c1)N1CCOCC1,4.5,8,/,/,4532,7,-9
Cc1onc(-c2ccccc2)c1C(=O)NN=Cc1cc2c(cc1Cl)OCO2,-3.8,/,-1,3,/,4,/
COc1ccc(-c2cc(-c3ccc(C)cc3)n[nH]2)c(O)c1,1.3,11,0,-4,3873,-1,-57
Cc1cc(C)c(S(=O)(=O)N2CCCOC2CNC(=O)C(=O)NCCc2c[nH]c3ccccc23)c(C)c1 (centres undefined),5.2,-12,5,5,2498,1,-5
CC1CCCC(NC(=O)Cn2cc3c(n2)CCCCC3)C1C (centres undefined),-2.3,0,/,/,5901,5,16
O=C(CCS(=O)(=O)c1ccc(Cl)cc1)NC1CCCC1,3.8,/,6,-1,2807,10,-23
CSCc1ccc(C(=O)N2CCC(N3CCC(C(=O)NC(C)C)CC3)CC2)o1,2.6,5,7,-1,6591,2,-2
c1ccc2c(N3CCNCC3)cccc2c1,2.5,5,-10,-6,5878,-2,-22
COc1ccc(-c2nc(N)n(C(=O)c3ccco3)n2)cc1,5.8,/,8,5,3736,-3,-21
CN1CCN(NC(=O)/C=C/c2ccc(Br)cc2)CC1,-0.3,-6,6,1,6178,10,-35
O=C(NN=Cc1c[nH]c2ccccc12)c1cccc(Cl)c1,2.7,/,18,7,/,7,/
CC/C(=N\O)c1ccc(O)c(OC)c1,/,15,/,/,9274,/,-15
Cc1oc(-c2cccc(Cl)c2)nc1CS(=O)(=O)CC(=O)NCCN1CCCC1,-9.5,12,14,12,5461,-3,-20
COc1cc2c(cc1OC)CN(C(=O)c1cccs1)CC2,1.2,-2,/,/,4653,1,-21
CCOc1ccccc1CN1CCN(C2CCN(c3ccccc3F)CC2)CC1CCO (centres undefined),0.0,-8,-4,11,2016,-1,0
C=CCn1c(SCC(=O)NC)nc2sc3c(c2c1=O)CCC3,3.7,-4,13,2,7872,5,-12
Cc1nnc(SCC(=O)NC2CCCC2)n1C(C)C,3.6,8,-3,-2,6099,4,-14
COc1cc(OC)cc(C(=O)N2CCN(Cc3ccccc3[N+](=O)[O-])CC2)c1,7.1,1,-6,0,4810,13,3
CC(=NNc1nccnc1Cl)c1ccc(O)c(C)c1,0.1,/,-3,0,/,-19,/
CSc1nncc(C(C)=NNc2cccc(C)c2)n1,3.4,/,12,5,/,-3,/
Cc1coc2cc3oc(=O)c(CCC(=O)NCCCN4CCCC4=O)c(C)c3cc12,0.9,-5,/,/,5037,2,-2
O=C(OCC(=O)N1CCC(c2ccccc2)=N1)c1ccc([N+](=O)[O-])s1,8.6,7,19,-1,4739,6,-9
Cc1nc2cc(CO)ccc2n1C,-0.8,3,/,/,4617,-1,-23
Cc1occc1-c1nnc(SCC(=O)Nc2ccccc2)n1CCc1ccccc1,3.6,-5,/,/,4752,-7,-29
COc1ccc(C(c2nnnn2Cc2ccccc2)N2CCN(c3ccccc3)CC2)cc1 (centres undefined),0.7,-1,/,/,2883,0,-13
CC(C)N1C(=O)c2ccccc2C1C(=O)NC1CCCCCC1 (centres undefined),3.4,-8,2,0,7894,5,-11
COc1cc(C(C(=O)NC2CCCCC2)N(C(=O)c2snc(C(N)=O)c2N)c2ccc(C)cc2)ccc1O (centres undefined),3.6,-5,-5,-4,4368,5,-8
O=C(NN1CCOCC1)c1ccc(Cl)s1,5.3,-7,-5,-1,4450,8,-27
C=C1CCN(C(Cc2ccccc2)C(=O)NCc2ccc(Cl)c(Cl)c2)S(=O)(=O)c2ccccc21 (centres undefined),3.0,/,6,10,/,-22,/
Cc1nc(NCc2ccccc2)c2cc[nH]c2n1,2.0,6,-1,9,4118,3,1
Cc1onc(-c2ccccc2)c1CNC(=O)CN1C(=O)c2ccccc2C1=O,-2.4,-9,-9,2,4359,-1,-8
COc1ccc(CN2CCN(C(=O)CCC(=O)c3ccc(C)s3)CC2)cc1OC,3.0,/,5,2,/,1,-57
CC(C)(O)C(=O)NN(Cc1ccccc1)c1ccccc1,0.6,-1,-4,14,3470,5,-10
CCn1c(SCC(=O)NC2CCCCC2)nnc1-c1cccs1,1.3,10,-2,7,20887*,3,-11
COc1ccc(CN2CCn3nc(C(=O)NC(C)C)cc3C2=O)cc1,-1.6,-4,-12,14,4617,-15,-28
COc1ccc(N2C(=O)CC3(CCCC3)CC2=O)cc1,6.4,0,4,2,2270,0,-1
Cc1ccc2cc(/C=C/C(=O)c3ccco3)c(Cl)nc2c1,3.0,-2,8,13,6405,1,/
CC(=O)Nc1nnc(SCc2ccccc2F)s1,5.3,-17,6,9,9168,-1,-35
O=C(CCc1nnc(Cc2ccc3c(c2)OCO3)o1)NCc1nc2ccccc2s1,-6.1,11,-8,5,2008,-3,-8
O=S(=O)(Nc1ccc2cn[nH]c2c1)c1ccc(C(F)(F)F)cc1,-2.7,/,-5,3,3986,-8,-8
Cc1ccc(C(C(=O)Nc2ccc(C(C)C)cc2)N(C)C(=O)c2ccc(=O)[nH]c2)cc1 (centres undefined),1.4,-2,-6,2,3815,-7,-17
CCOc1ccc(N2CC(C(=O)NCc3ccc(C)n3C)CC2=O)cc1 (centres undefined),-5.1,/,8,-1,4385,6,-23
CCSc1nc(O)c(C2OC(=O)c3c2ccc(OC)c3OC)c(=O)n1CC (centres undefined),1.3,-14,3,1,10044,-2,-15
Cc1cc(C)n(-c2nc3c(c(=O)[nH]c(=O)n3C)n2CC(O)c2ccccc2)n1 (centres undefined),2.7,-11,/,/,5352,-3,-3
O=S(=O)(c1ccccc1)N1CCN(Cc2ccccc2C(F)(F)F)CC1,-3.7,/,/,/,3285,12,-11
COc1ccc2oc(C(=O)Nc3nccs3)c(C)c2c1,3.7,3,3,0,?,3,-50
CCOC(=O)C1CCN(C2CCN(Cc3nc(-c4ccccc4)no3)CC2)CC1,-0.1,3,5,3,2483,3,-25
CCCS(=O)(=O)N1CCC(C(=O)N2CCN(C(=O)OCC)CC2)CC1,-16,/,24,-19,3089,-6,-6
Cc1ccc(NC(=O)COC(=O)CCNS(=O)(=O)c2c(Cl)cccc2Cl)cc1,1.2,/,0,5,2667,-4,3
COc1ccc(NC(=O)CN(C)C(=O)c2cn(-c3ccccc3)nc2-c2ccc(Cl)cc2)cc1,-1.6,4,10,1,5011,4,-13
CN1CCc2c(sc3c2C(=O)NC(c2ccc(-c4cccc(Cl)c4)o2)N3)C1 (centres undefined),6.2,11,7,8,5377,9,-31
CC(C)c1ccc(S(=O)(=O)N2CCN(C(C)C(=O)NC3CCCC3)CC2)cc1 (centres undefined),0.9,/,7,9,4059,8,-8
CC(C)=CCN1CCN(Cc2cnc(-c3ccccc3)s2)CC1CCO (centres undefined),2.8,10,10,9,4918,3,-19

# Given with two lines to a compound: part of the list above.
# Sequence of screens – Sa RN4220 lethal, BJeLR viability, Mtb hypoxia rep, Mtb hypoxia rep growth, Autofluor counter, Sa ugtP lethal, PrP 5UTR inh
Cc1cc(C)n(-c2nc3c(c(=O)[nH]c(=O)n3C)n2CC(O)c2ccccc2)n1 (centres undefined)
  2.7, -11, /, /, 5352, -3, -3
O=S(=O)(c1ccccc1)N1CCN(Cc2ccccc2C(F)(F)F)CC1
  -3.7, /, /, /, 3285, 12, -11
COc1ccc2oc(C(=O)Nc3nccs3)c(C)c2c1
  3.7, 3, 3, 0, ?, 3, -50
CCOC(=O)C1CCN(C2CCN(Cc3nc(-c4ccccc4)no3)CC2)CC1
  -0.1, 3, 5, 3, 2483, 3, -25

# The list goes on.
SMILES,Sa RN4220 lethal,BJeLR viability,Mtb hypoxia rep,Mtb hypoxia rep growth,Autofluor counter,Sa ugtP lethal,PrP 5UTR inh
COc1ccc2c(c1)CC(C(=O)Nc1ccc(Cl)cc1)C(=NO)O2 (centres undefined),1.8,/,3,-4,/,4,/
CCC(=O)N/C(=N\OCc1ccc(F)cc1)c1nonc1NC(=O)CC,/,-3,/,/,3526,/,-5
Cc1cc(C)c(S(=O)(=O)N2CCN(C(=O)C3COc4ccccc4O3)CC2)c(C)c1 (centres undefined),0.0,/,21,44,4067,1,-12
O=C(COc1ccc(S(=O)(=O)Nc2ccc(Cl)cc2)cc1)N1CCOCC1,3.4,8,5,0,5973,4,-14
Cc1oc(-c2ccc(Cl)cc2)nc1CN1CCC(C(=O)N2CCN(Cc3ccccc3)CC2)CC1,-3.3,1,/,/,7197,7,-24
Cc1[nH]c2ccccc2c1-c1csc(N)n1,0.4,-3,-11,-9,2896,-3,10
COc1ccc(CCNC(=O)CS(=O)(=O)Cc2nc(-c3ccccc3Cl)oc2C)cc1OC,2.4,-24,-1,4,5689,-1,-25
COCCN1C(=O)N(c2cccc(OC)c2)C(=O)C1CC(=O)Nc1ccc(Cl)cc1 (centres undefined),4.1,2,7,-1,4321,1,-18
Cc1cc(Br)c(OCc2ccc(C(=O)NN=C3CC4CC=CC34)cc2)c(Br)c1 (centres undefined),-7.6,/,0,1,/,4,/
Cc1cc(C)c2nc(NC(=O)c3ccc([N+](=O)[O-])o3)sc2c1,7.5,-13,10,3,3693,99*,-28
COc1ccccc1-c1nnc(NC(=O)c2cccc(N3C(=O)CCC3=O)c2)o1,3.5,1,13,2,2069,1,-20
CCc1ccc(C(=O)CCC(=O)Nc2ccc(OC)c(S(=O)(=O)N3CCCCC3)c2)cc1,-4.5,/,8,-2,2908,12,-26
COc1ccc(NC(=O)c2ccc(NCCCN3CCOCC3)c([N+](=O)[O-])c2)cc1,-8.2,5,-5,5,1908,-4,0
Cc1ccc(Cl)c2sc(NC(=O)C3=COCCO3)nc12,-6.7,8,11,16,6031,-3,-29
O=C(NCCCNC(=O)c1ccccc1Br)c1ccccc1Br,2.5,-5,7,7,3897,5,-13
CC(O)CCC(C)O[C@@]1(c2ccccc2)OC2CC(O)C(C)OC2O1 (some centres undefined),6.0,/,18,4,/,1,/
CCCNC(=S)NCCN1CCCCC1,2.3,-2,1,7,9606,0,-32
Cn1c(CC(=O)Nc2ccccc2Cl)nnc1SCC(=O)NC1CCCCC1,4.1,0,8,6,3423,13,-30
NC(=O)CCn1c2ccccc2c2ccccc21,4.3,1,5,11,2073,4,-12
COc1cccc(C(=O)Nc2ncc3c(n2)CC(C)(C)CC3=O)c1,6.6,-8,12,8,3123,-7,-3
COc1ccc(S(=O)(=O)N2CCC(C(=O)NCc3ccncc3)CC2)cc1,2.2,3,3,4,5801,5,-9
CCc1c(C)sc(NC(=O)CC#N)c1C#N,2.7,3,5,3,8317,-4,-8
CCC(=O)c1cn(Cc2ccccc2)c2ccccc12,2.4,-1,17,10,4112,8,-7
COc1ccc(C(=O)NCCCN2CCOCC2)cc1,4.1,-13,4,4,3851,6,-19
O=C(N/N=C/c1cccc([N+](=O)[O-])c1)C(=O)N1CCCCCC1,/,-3,/,/,6180,/,-8
Cc1nn(C)cc1CN(C)C(=O)CCc1nnc(CCC2CCCCC2)o1,1.8,-1,6,-2,4382,-1,-30
CCOc1ccc(CN(CC)C(=O)c2ccc3c(c2)[nH]c(=O)c(=O)n3CC)cc1OC,1.3,-1,-8,4,3524,6,-3
Cc1ccc(NC(=O)N2CCCC(c3nc(-c4ccc(F)cc4)no3)C2)cc1 (centres undefined),4.8,-4,0,9,4636,7,-26
COc1ccc(NC2CCCN(C(=O)COc3ccc(C)cc3)C2)cc1 (centres undefined),1.9,-1,1,14,6130,-1,-17
